Bioassay records (PubChem BioAssay)
PKD1 kinase inh: PKD1 (human) kinase inhibition; Q15139; PKD1 kinase fluorescence polarization assay; inhibition, %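 (about 10 µM by stock and volumes)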; 200,000 tested, 0.056% active;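 active = inhibition of 50% or more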;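 note: controls were vehicle for no effect and a reference inhibitor for full effect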
Target sequence (Q15139 whole entry, looked up): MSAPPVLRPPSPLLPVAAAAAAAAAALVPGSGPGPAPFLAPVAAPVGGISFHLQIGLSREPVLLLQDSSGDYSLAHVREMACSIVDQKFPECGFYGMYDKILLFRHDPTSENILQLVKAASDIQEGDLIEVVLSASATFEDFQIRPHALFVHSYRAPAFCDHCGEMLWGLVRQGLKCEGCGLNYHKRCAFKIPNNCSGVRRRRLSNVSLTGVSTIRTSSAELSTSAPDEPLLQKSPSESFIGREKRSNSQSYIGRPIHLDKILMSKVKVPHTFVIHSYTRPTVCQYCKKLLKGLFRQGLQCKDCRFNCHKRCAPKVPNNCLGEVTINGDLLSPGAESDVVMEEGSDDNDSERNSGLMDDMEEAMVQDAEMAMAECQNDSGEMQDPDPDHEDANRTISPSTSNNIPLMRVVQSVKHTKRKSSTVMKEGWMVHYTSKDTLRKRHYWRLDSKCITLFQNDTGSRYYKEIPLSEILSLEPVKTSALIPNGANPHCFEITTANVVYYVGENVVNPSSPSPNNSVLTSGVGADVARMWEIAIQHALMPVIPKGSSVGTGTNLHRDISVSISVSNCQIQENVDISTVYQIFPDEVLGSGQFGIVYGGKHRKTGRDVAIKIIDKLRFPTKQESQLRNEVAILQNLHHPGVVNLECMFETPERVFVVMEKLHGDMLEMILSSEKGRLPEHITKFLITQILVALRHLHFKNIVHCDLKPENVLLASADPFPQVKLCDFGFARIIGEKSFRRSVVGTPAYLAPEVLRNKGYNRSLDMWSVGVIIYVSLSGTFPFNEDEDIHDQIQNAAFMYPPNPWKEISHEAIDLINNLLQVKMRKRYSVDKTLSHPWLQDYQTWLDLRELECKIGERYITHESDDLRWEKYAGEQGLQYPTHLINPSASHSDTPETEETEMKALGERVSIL
RGS16-Gao HTS: regulators of human RGS16-Galphao interaction; O15492+P09471; bead-based flow cytometry RGS16-Galphao binding, fluorescence; actives lie on both sides; binding response (% of control), % at 10 µM; 220,000 tested, 0.38% active; AID 1441;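 active = below 25% or above 175%, edge rows of some plates excepted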;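 note: Galphao activated by GDP with aluminum fluoride before binding; 100% = wells without compound and 0% = beads without RGS; some results beyond the cut were filed as inactive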
GALR2 ag: activates the human galanin receptor 2; GALR2-expressing cells, agonist activation read-out; AID 803; O43603; 140,000 tested, 0.48% active; activation, %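 (tested at 5 µM)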;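 active = above mean plus 3 SD of all compounds, about 5% in these data, not always enough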;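 note: 0% = vehicle buffer wells and 100% = reference agonist at full effect; tested in CHO reporter cells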
Insulin prom inh: TRM-6 insulin promoter activity inhibition | TRM-6 cells (human fetal islet line), insulin promoter-eGFP reporter, imaging; reporter expression induced with tamoxifen | inhibition, % at 2 µM | 130,000 tested, 0.9% active;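 active = inhibition above the mean plus 3 SD, with well images judged a real hit on visual review, cut at about 60% in these data, passing the limit was not always enough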
HSV augment: increases HSV replication in cells. HSV replication augmentation in cells, fold increase. maximum fold increase. 220,000 tested, 0.005% active. AID 1956;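 active = peak rise of 1.5-fold or more in the series; tested in PC3 cells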;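 note: first round at 10 µM; read as green reporter fluorescence; hits show the peak of a series up to 25 µM; 1 = signal of infected wells without compound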
Insulin prom inh cell count: second read-out of Insulin prom inh, no call of its own (marks repeat the call); normalized cell count, %; measured here: cell count, toxicity; reference of the scale not given here;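 cells exposed to compound for 48 h; stained nuclei by imaging scaled within each plate; lower means fewer cells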
HSV augment primary fold: second read-out of HSV augment, no call of its own (marks repeat the call); fold increase; compound at 10 µM; measured here: primary screen fold increase 10 uM; tested in PC3 cells;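 GFP signal in the first replicate; 1 = infected wells without compound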
Numbers without * were called inactive; i = inactive; . = no result given.

SMILES	PKD1 kinase inh	RGS16-Gao HTS	GALR2 ag	Insulin prom inh	Insulin prom inh cell count	HSV augment	HSV augment primary fold
COc1cc(/C=C(/C#N)c2nc3ccccc3[nH]2)ccc1Oc1ncccc1[N+](=O)[O-]	2	93	-2.4	15	109	i	0.75
COC(=O)/C=C1\NCCSC1=O	-3	99	-1.8	.	.	i	1.1
Cc1cccc(NCc2cc(Cl)ccc2O)n1	0	122	-0.3	28	74	i	1.1
CC(CNC(=O)COc1ccccc1)OC(=O)Nc1ccc(Cl)c(Cl)c1 (stereo not drawn)	-7	124	0.0	.	.	i	1
COCCN1C(=O)N[C@@H](c2cccs2)C(C(=O)OC)=C1C	-11	94	-0.9	20	112	i	0.86
CCOC(=O)c1nnc(-c2ccccc2)nc1Oc1ccc(Cl)cc1	7	99	-3.0	28	78	i	1
COCCCN1C(=O)/C(=C/c2ccc(CNS(=O)(=O)c3ccccc3)o2)C(C(=O)OC)=C1C	-2	101	.	.	.	i	1.1
CN(C)CCCNC(=O)/C(=C\c1ccc(-c2ccc(Br)cc2)o1)NC(=O)c1ccccc1	4	103	-0.8	0	128	i	0.61
Cc1cccc(OCc2nnc(SCn3nnc4ccccc4c3=O)o2)c1	-3	99	-1.2	.	.	i	0.91
Cc1nonc1C1CCCN1Cc1cn[nH]c1-c1ccc(-c2ccccc2)cc1 (stereo not drawn)	3	126	.	.	.	i	0.82
O=C(CCCn1c(SCc2ccccc2F)nc2ccccc2c1=O)NCC1CCCO1 (stereo not drawn)	3	45	.	-7	88	i	0.83
CCOC(=O)C(=O)Nc1cc(C)nn1-c1nc2ccccc2[nH]1	.	106	.	.	.	i	1.1
O=C(Cn1nc(-c2ccc3c(c2)OCCO3)ccc1=O)Nc1ccc(-n2cnnn2)cc1	0	101	.	.	.	i	0.87
COc1cc(/C=N/NC(=O)C2C3CCCCC32C)cc(Br)c1O (stereo not drawn)	3	39	0.2	-17	107	i	0.98
O=C(Nc1nccs1)c1ccc2nccnc2c1	1	98	-1.9	.	.	i	1
Cc1cc(OC(=O)c2ccc3ccccc3c2)c([N+](=O)[O-])c(=O)[nH]1	-9	65	.	14	36	i	0.9
CN(C)S(=O)(=O)c1cc(NC(=O)Cn2ccsc2=N)ccc1Cl	-2	104	.	.	.	i	0.94
O=c1[nH]n2c(=O)c3c([nH]c2c1N=Nc1cccc(Cl)c1)CCCC3	0	105	-0.4	6	119	i	0.85
Cc1ccc(N/N=C(/Sc2nnnn2-c2ccccc2)C(=O)c2ccccc2)cc1	-12	103	-1.1	48	70	i	1.1
O=C(C1CC1)N1CCc2[nH]c3ccccc3c2C1	-6	110	-1.0	.	.	i	0.93
COc1ccc(Cn2cccc(NC(=O)Nc3ccc(F)cc3)c2=O)cc1	1	105	.	.	.	i	1
COc1ccc(/C=N/Nc2ncnc3c2[nH]c2ccc(C)cc23)c(OC)c1OC	.	97	.	.	.	i	0.7
Cc1cc(-n2c(=O)c(C#N)cc3c(=O)n4ccccc4nc32)no1	-1	-3.0*	31*	-41	85	i	1.1
CCN(CC)C(=O)CSc1ncnc2c1cnn2-c1ccccc1	-7	96	-1.9	-392	44	i	0.91
CCOC(=O)c1ccc(NC(=S)NCCCN2CCOCC2)cc1	-1	111	.	-80	117	i	1

Given bar-delimited: part of the list above
mol | PKD1 kinase inh | RGS16-Gao HTS | GALR2 ag | Insulin prom inh | Insulin prom inh cell count | HSV augment | HSV augment primary fold
Cc1nonc1C1CCCN1Cc1cn[nH]c1-c1ccc(-c2ccccc2)cc1 (stereo not drawn) | 3 | 126 | . | . | . | i | 0.82
COCCN1C(=O)N[C@@H](c2cccs2)C(C(=O)OC)=C1C | -11 | 94 | -0.9 | 20 | 112 | i | 0.86
Cc1cc(OC(=O)c2ccc3ccccc3c2)c([N+](=O)[O-])c(=O)[nH]1 | -9 | 65 | . | 14 | 36 | i | 0.9

(more compounds)
SMILES	PKD1 kinase inh	RGS16-Gao HTS	GALR2 ag	Insulin prom inh	Insulin prom inh cell count	HSV augment	HSV augment primary fold
COc1ccccc1N(C)S(=O)(=O)c1ccc(C(=O)Nc2ccc(N3CCOCC3)cc2)cc1	-2	101	.	.	.	i	0.95
OCCC1CN(CCCn2cccn2)CCN1C1CCCCC1 (stereo not drawn)	-7	100	.	.	.	i	1.1
N#C/C(=C\c1cccc([N+](=O)[O-])c1)C(=O)NCC1CCCO1 (stereo not drawn)	7	114	.	.	.	i	1.1
COCCNC(=O)/C(C#N)=C/c1cc(Br)c(O)c(OC)c1	2	98	.	.	.	i	1
CCOc1ccccc1C(=O)Nc1cc(Cl)ccc1O	6	100	-1.9	31	107	i	0.98
O=C(c1ccc2c(=O)n(Cc3ccco3)c(=S)[nH]c2c1)N1CCN(c2ccccc2)CC1	-3	96	-1.7	-9	105	.	.
CN1CCN(C(=O)C2CCC(C)(C(=O)O)C2(C)C)CC1 (stereo not drawn)	-9	112	.	.	.	i	1.1
Cc1nn(-c2ccccc2)c(N2CCCC2)c1/C=N/NC(=O)c1ccccc1O	-6	118	-1.6	10	116	i	0.9
CC(C)c1ccc(C2CC(c3ccc(Br)cc3)=NN2C(N)=S)cc1 (stereo not drawn)	-1	102	0.3	.	.	i	0.9
CC12CCC(C(=O)Nc3ccccc3Cl)([C@H](Br)C1=O)C2(C)C (stereo partly drawn)	.	98	.	.	.	i	1.1
O=[N+]([O-])c1ccc(N2CCN(c3ccccc3F)CC2)c(S(=O)(=O)N2CCOCC2)c1	-1	100	-0.5	.	.	i	0.93
CNC(=O)C1(C)C=CCN1C(=O)c1ccccc1 (stereo not drawn)	-7	102	-3.5	0	108	i	0.91
O=Cc1ccc(Sc2nnc(-c3ccccc3)o2)c([N+](=O)[O-])c1	4	97	-1.4	21	75	i	0.92
S=c1nc(-c2cccc(Cl)c2)[nH][nH]1	-2	100	.	41	155	i	0.96
Nc1nc(-c2ccco2)nn1C(=O)c1cccnc1	-9	101	-1.6	.	.	i	0.98
Cc1cccc(N=c2oc3cc(O)ccc3cc2C(N)=O)c1	6	85	66*	.	.	i	1
Cc1cccc(/C=N/n2c(C)nnc2C)c1	-9	98	-3.8	-24	193	i	1.1
N#CCCN(C(=S)NC(=O)c1ccco1)c1ccccc1F	1	98	.	22	82	i	0.87
CC12C(=O)N(c3ccccc3C(=O)O)C(=O)C1C1C=CC2C1 (stereo not drawn)	13	106	-1.4	-14	103	i	0.91
CCOC(=O)c1cnc2c(-c3cccc(Br)c3)cnn2c1C	5	103	-1.2	-15	105	i	1
O=c1[nH]n2c(C(F)(F)F)cc(C3CC3)nc2c1N=Nc1ccccc1	0	107	.	.	.	i	0.88
CN(C)CCNC(=S)Nc1ccccc1C(C)(C)C	8	99	.	47	109	i	1.2
CC(Cn1nnc2ccccc21)C(=O)O (stereo not drawn)	-2	116	.	.	.	i	0.98
C=CCc1cccc(/C=N/c2ncn[nH]2)c1O	-7	101	-2.8	.	.	i	1
CCOC(=O)C(C)Oc1ccccc1C1NC(=O)NC(C)=C1C(=O)Nc1ccc(C)c(C)c1 (stereo not drawn)	-9	109	-1.7	-4	115	i	0.96

The results go on.
SMILES	PKD1 kinase inh	RGS16-Gao HTS	GALR2 ag	Insulin prom inh	Insulin prom inh cell count	HSV augment	HSV augment primary fold
O=C(Nc1ccccc1N1CCOCC1)c1ccccc1NS(=O)(=O)c1ccc(F)cc1	-6	99	-1.6	-8	156	.	.
NC(=O)C1CCN(Cc2nc3ccccc3c(=O)[nH]2)CC1	-4	102	-0.6	21	117	i	0.76
CN(CC(=O)Nc1ccncc1)S(=O)(=O)c1ccc(Br)cc1	-6	102	-0.7	9	124	i	1.1
Nc1cccnc1Sc1cc(Cl)cc(Cl)c1	3	86	0.0	90*	136*	i	1.1
COc1ccc(CNc2ccc(Br)cc2)cc1	-6	102	.	29	101	i	0.97
CC(C)(C)c1ccccc1NC(=O)Cn1c(=O)cnc2ccccc21	-3	103	-0.5	-68	67	i	1
CSc1nc(N)c2c(C)c(C)sc2n1	11	102	-0.9	54	115	i	1
COc1ccc(C2=CC(c3sccc3C)n3nnnc3N2)cc1 (stereo not drawn)	2	99	-1.1	-20	128	i	5.4
COc1cc(C)nc(Oc2ccc(=O)n(C)n2)n1	-1	89	-2.1	19	140	i	1.1
COc1ccc(NC(=O)CCC(=O)N(Cc2ccc(OC)c(OC)c2)c2nccs2)c(OC)c1	-5	77	.	41	120	i	0.96
Cc1cc(C)nc(NC(=O)c2cccc([N+](=O)[O-])c2C)n1	7	97	-0.1	7	93	i	0.79
CCSc1nnc(N(CCC(=O)O)CCC(=O)O)s1	3	102	-2.0	-18	88	i	1
COc1ccc(CN(C(=O)/C=C/c2ccco2)C2CCS(=O)(=O)C2)cc1 (stereo not drawn)	.	80	.	.	.	i	1.1
CCCc1ccc(-c2c(C)sc(NC(=O)c3ccnn3C)c2C#N)cc1	-2	107	-0.1	-8	109	i	0.94
O=C(Nc1cc(S(=O)(=O)N2CCOCC2)ccc1N1CCOCC1)C1CCCO1 (stereo not drawn)	-6	104	.	50	75	i	0.95
Cc1c(C(=O)O)cccc1-n1c(C)cc(C=O)c1C	-2	105	.	20	49	i	1
Cc1ccc(CSCC(=O)Nc2ccccc2F)cc1	1	100	.	-24	14	i	0.92
Cc1c(OCc2nn[nH]n2)ccc2c(-c3ccccc3)cc(=O)oc12	10	134	0.2	.	.	i	1
CC(CC(=O)Nc1ccc(Cl)c([N+](=O)[O-])c1)c1ccccc1 (stereo not drawn)	-8	104	-3.1	-12	92	i	0.92
CCOc1ccc(N(CC(=O)Nc2ccc(OC)cc2)S(C)(=O)=O)cc1	-3	98	-2.4	-32	109	i	0.95
O=c1c2c(-c3ccc(Cl)cc3)csc2nc2n1CCC2	0	100	1.0	.	.	i	0.84
Cc1ccc(-c2nsc(SCC(=O)Nc3ccc4c(c3)OCO4)n2)cc1	1	104	-0.2	.	.	i	1
Cc1[nH]c2ccccc2c1/C=N/NC(=O)CNC(=O)c1ccc2c(c1)OCCO2	.	103	.	.	.	i	0.93
CCOc1ccc(-n2c(=O)c3c(C)c(C(=O)N(C)C)sc3n(CC(=O)Nc3ccccc3F)c2=O)cc1	2	103	.	19	114	i	0.99
O=C(CN1CCN(c2ccc(Cl)cc2)CC1)NCc1ccccc1	-8	114	.	.	.	i	1.1

GALR2 ag: what is marked active above
structure | PKD1 kinase inh | RGS16-Gao HTS | GALR2 ag | HSV augment | HSV augment primary fold
Cc1cc(-n2c(=O)c(C#N)cc3c(=O)n4ccccc4nc32)no1 | -1 | -3.0* | 31* | i | 1.1
Cc1cccc(N=c2oc3cc(O)ccc3cc2C(N)=O)c1 | 6 | 85 | 66* | i | 1

(continued)
SMILES	PKD1 kinase inh	RGS16-Gao HTS	GALR2 ag	Insulin prom inh	Insulin prom inh cell count	HSV augment	HSV augment primary fold
Cc1ccc(/C=N/N=C/c2ccc(C)cc2)cc1	0	100	-1.7	-14	100	i	1
COc1cc(CNn2cn[nH]c2=S)cc(Cl)c1OCc1ccccc1	-3	94	-0.7	-33	83	i	0.84
O=C(NCc1cccnc1)C1CC(=O)N(C2CCCCC2)C1 (stereo not drawn)	-16	104	0.1	.	.	i	1.1
COc1ccc(OC)c(NC(=S)N2CCC(C(O)(c3ccccc3)c3ccccc3)CC2)c1	-5	133	0.1	.	.	i	1.1
O=C(CCN1C(=O)c2ccccc2C1=O)N1CCN(c2ccccc2)CC1	0	102	-0.8	.	.	i	0.96
Nn1c(Cc2ccccc2F)nnc1SCCOc1ccc(Cl)cc1	-4	111	-0.2	-74	89	i	0.98
CCOCCCNC(=O)C(NC(=O)C1CCC(=O)N1)c1ccc(C)cc1 (stereo not drawn)	-2	99	-2.2	7	232	i	0.88
CCC(C)NS(=O)(=O)c1ccc(S(=O)(=O)Nc2cc3c(cc2C(C)=O)OCO3)cc1 (stereo not drawn)	6	110	-1.4	.	.	i	0.89
O=C(O)CCC(=O)NC1CCCCC1	1	106	-2.8	.	.	i	0.91
O=C(CSc1nc(-c2ccco2)cc(C(F)(F)F)n1)N1CCCc2ccccc21	-8	90	-1.9	10	74	i	1
Cc1nc(N)nc2c1CCCC2	-4	100	-1.0	54	72	i	0.96
CCOc1cc(NC(=S)NCC2CCCO2)c(OCC)cc1NC(=O)c1cccc(F)c1 (stereo not drawn)	0	97	.	.	.	i	0.93
NS(=O)(=O)c1cccc(NC(=O)COC(=O)CC2CC3CCC2C3)c1 (stereo not drawn)	7	102	.	13	89	i	0.73
